GALR2 agonist: GALR2 (human) receptor agonism | O43603 | GALR2-expressing cells, agonist activation read-out | activation, %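 (tested at 5 µM)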 | actives 0.48% (n = 140,000);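 active means above mean plus 3 SD of all compounds, about 5% in these data, not always enough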;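 further: 0% = vehicle buffer wells and 100% = reference agonist at full effect; tested in CHO reporter cells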
Target sequence (O43603 whole entry, looked up): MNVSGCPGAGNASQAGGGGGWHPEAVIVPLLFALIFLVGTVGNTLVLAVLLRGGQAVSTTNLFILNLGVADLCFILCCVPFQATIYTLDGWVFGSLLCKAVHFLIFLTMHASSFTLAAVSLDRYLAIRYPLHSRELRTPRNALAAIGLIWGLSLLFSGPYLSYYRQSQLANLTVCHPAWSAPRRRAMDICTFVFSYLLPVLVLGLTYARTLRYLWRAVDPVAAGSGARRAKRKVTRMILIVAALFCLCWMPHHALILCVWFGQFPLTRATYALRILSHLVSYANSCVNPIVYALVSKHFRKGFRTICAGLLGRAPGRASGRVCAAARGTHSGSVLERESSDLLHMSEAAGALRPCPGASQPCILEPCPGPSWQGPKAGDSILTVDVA
Insulin prom inh: TRM-6 insulin promoter activity inhibition; AID 1273; inhibition, % at 2 µM; TRM-6 cells (human fetal islet line), insulin promoter-eGFP reporter, imaging; reporter expression induced with tamoxifen; actives 0.9% (n = 130,000);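 active means inhibition above the mean plus 3 SD, with well images judged a real hit on visual review, cut at about 60% in these data, passing the limit was not always enough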
PKD1 kinase inh: blocks activity of human protein kinase D1; Q15139; PKD1 kinase fluorescence polarization assay; inhibition, %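 (about 10 µM by stock and volumes)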; actives 0.056% (n = 200,000); AID 797;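 active means inhibition of 50% or more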;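 further: controls were vehicle for no effect and a reference inhibitor for full effect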
RGS16-Gao: modulates binding between human RGS16 and Galphao | actives 0.38% (n = 220,000) | O15492+P09471 | binding response (% of control), % at 10 µM | bead-based flow cytometry RGS16-Galphao binding, fluorescence; actives lie on both sides;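 active means below 25% or above 175%, edge rows of some plates excepted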;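 further: Galphao activated by GDP with aluminum fluoride before binding; 100% = wells without compound and 0% = beads without RGS; some results beyond the cut were filed as inactive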
Target sequence (O15492 whole entry, looked up): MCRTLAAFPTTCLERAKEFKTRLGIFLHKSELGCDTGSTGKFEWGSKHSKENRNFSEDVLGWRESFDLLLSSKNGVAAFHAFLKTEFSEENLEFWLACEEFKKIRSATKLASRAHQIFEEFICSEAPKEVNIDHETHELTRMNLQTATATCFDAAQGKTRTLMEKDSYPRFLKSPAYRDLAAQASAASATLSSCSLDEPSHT
Target sequence (P09471 whole entry, looked up): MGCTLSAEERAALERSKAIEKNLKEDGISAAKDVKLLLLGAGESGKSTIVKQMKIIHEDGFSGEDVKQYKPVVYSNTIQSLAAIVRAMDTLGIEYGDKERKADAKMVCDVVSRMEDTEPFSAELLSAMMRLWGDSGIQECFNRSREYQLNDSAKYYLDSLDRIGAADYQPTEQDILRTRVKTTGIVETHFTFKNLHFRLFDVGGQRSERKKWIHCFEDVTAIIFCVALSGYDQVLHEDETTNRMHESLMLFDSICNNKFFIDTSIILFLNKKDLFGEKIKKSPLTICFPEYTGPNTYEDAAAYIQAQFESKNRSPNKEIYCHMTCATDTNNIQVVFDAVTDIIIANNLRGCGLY
HSV replic up: increases HSV replication in cells. HSV replication augmentation in cells, fold increase. maximum fold increase. actives 0.005% (n = 220,000);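 active means peak rise of 1.5-fold or more in the series; tested in PC3 cells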;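 further: first round at 10 µM; read as green reporter fluorescence; hits show the peak of a series up to 25 µM; 1 = signal of infected wells without compound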
Insulin prom inh cell count: also measured in Insulin prom inh; calls as there; normalized cell count, %; measured here: cell count, toxicity; reference of the scale not given here;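 cells exposed to compound for 48 h; stained nuclei by imaging scaled within each plate; lower means fewer cells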
HSV replic up primary fold: also measured in HSV replic up; calls as there; fold increase; compound at 10 µM; measured here: primary screen fold increase 10 uM; tested in PC3 cells;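 GFP signal in the first replicate; 1 = infected wells without compound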
Numbers without * were called inactive; i = inactive; · = not tested or not shown. An excerpt; count on the stated rates, not on these rows.

Screens in order – GALR2 agonist | Insulin prom inh | Insulin prom inh cell count | PKD1 kinase inh | RGS16-Gao | HSV replic up | HSV replic up primary fold
CCOC(=O)C(O)(c1ccc(NC(=S)NC(=O)c2ccc(Cl)cc2Cl)cc1)C(F)(F)F (stereo not drawn)
 : 2.7 | 3 | 110 | 12 | 162 | i | 0.89
C=CCn1c(O)c(C(CC)=NCc2ccc3c(c2)OCO3)c(=O)[nH]c1=O
 : · | · | · | · | 106 | i | 0.87
O=C1/C(=C/c2ccc([N+](=O)[O-])cc2)N2CCC1CC2
 : 0.0 | · | · | -11 | 93 | i | 0.83
Cc1ccc(-c2cc(C(=O)N3CCC4(CC3)OCCO4)no2)cc1
 : · | · | · | -3 | 92 | i | 0.88
CC1(C)CC(=O)c2cc(OCC(=O)N3CCN(Cc4ccccc4)CC3)ccc2O1
 : · | · | · | -4 | 99 | i | 0.97
CCN(CC)S(=O)(=O)c1ccc(N=Cc2c(O)n(-c3ccccc3)c(=O)[nH]c2=O)cc1
 : -1.3 | · | · | 0 | 94 | i | 1.2
CC1(C)Cc2c(C#N)c(N3CCNCC3)nc(-c3ccco3)c2CS1
 : · | · | · | · | 103 | i | 0.9
CN(C)c1nc(-c2ccccc2)[n+](C)s1
 : -0.3 | · | · | 0 | 65 | i | 1.1
Cc1c(C(=O)O)cccc1-n1c(C)cc(/C=C2\C(=O)NC(=O)N(c3ccc4c(c3)OCO4)C2=O)c1C
 : · | 18 | 139 | 12 | 97 | i | 0.95
CN1C2CCC1CC(OC(=O)c1ccc(Cl)cc1)(C(=O)O)C2 (stereo not drawn)
 : -1.4 | 14 | 57 | -1 | 124 | i | 1
O=C(Cc1ccccc1)N1CCN(Cc2ccc([N+](=O)[O-])cc2)CC1
 : -2.2 | -14 | 92 | -3 | 99 | i | 1
CSc1ccc(C(=O)C2CCCN(Cc3ccn[nH]3)C2)cc1 (stereo not drawn)
 : · | · | · | · | 105 | i | 1
Cc1ccccc1N1C(=O)NC(=O)/C(=C\c2cc(C)n(C)c2C)C1=O
 : · | · | · | 0 | 100 | i | 1.1
Oc1ccccc1/C=N/NP(=S)(c1ccccc1)c1ccccc1
 : · | · | · | 0 | 101 | i | 0.86
CCN(CC)CCN=Cc1c(O)n(Cc2ccco2)c(=O)[nH]c1=O
 : · | · | · | · | 99 | i | 0.87
O=C(c1c[nH]c2ccc(S(=O)(=O)N3CCC4(CC3)OCCO4)cc2c1=O)N1CCC2(CC1)OCCO2
 : · | -25 | 97 | -6 | 110 | i | 1.1
CC(C)Oc1ccc(CCN)cc1Cl
 : -0.4 | 50 | 108 | -10 | 99 | i | 0.94
O=c1[nH]sc2cc(F)ccc12
 : · | -6 | 31 | 7 | 51 | i | 0.76
O=C(Nc1ccc(F)cc1)N1CC2CC(C1)c1cccc(=O)n1C2 (stereo not drawn)
 : 0.0 | -63 | 55 | 2 | 94 | i | 0.99
Cc1ccc(O)c(CN2CCN(c3ccccc3)CC2)c1
 : -1.4 | · | · | 0 | 99 | i | 1.1

Of the compounds above, these have a halogen.
Screens in order – GALR2 agonist | Insulin prom inh | Insulin prom inh cell count | PKD1 kinase inh | RGS16-Gao | HSV replic up | HSV replic up primary fold
CCOC(=O)C(O)(c1ccc(NC(=S)NC(=O)c2ccc(Cl)cc2Cl)cc1)C(F)(F)F (stereo not drawn)
 : 2.7 | 3 | 110 | 12 | 162 | i | 0.89
CN1C2CCC1CC(OC(=O)c1ccc(Cl)cc1)(C(=O)O)C2 (stereo not drawn)
 : -1.4 | 14 | 57 | -1 | 124 | i | 1
CC(C)Oc1ccc(CCN)cc1Cl
 : -0.4 | 50 | 108 | -10 | 99 | i | 0.94
O=c1[nH]sc2cc(F)ccc12
 : · | -6 | 31 | 7 | 51 | i | 0.76
O=C(Nc1ccc(F)cc1)N1CC2CC(C1)c1cccc(=O)n1C2 (stereo not drawn)
 : 0.0 | -63 | 55 | 2 | 94 | i | 0.99

Further compounds:
Screens in order – GALR2 agonist | Insulin prom inh | Insulin prom inh cell count | PKD1 kinase inh | RGS16-Gao | HSV replic up | HSV replic up primary fold
CCOc1ccc(C2(C#N)CC[N+](C)(C)CC2)cc1
 : -1.1 | 20 | 111 | -3 | 99 | i | 1
COC(=O)CN1C(=O)CN=C(c2ccccc2Cl)c2cc(Br)ccc21
 : · | · | · | · | 103 | i | 0.94
CCn1c(O)c(C=NCc2cccs2)c(=O)[nH]c1=O
 : -2.2 | -21 | 112 | 5 | 85 | i | 0.8
NC(=O)OCCSc1nnc(-c2cccc(C(N)=S)c2)o1
 : -0.1 | 6 | 140 | -6 | 56 | i | 1.1
COc1ccc(OC)c(NP(=O)(Oc2ccc(Cl)cc2)Oc2ccc(Cl)cc2)c1
 : -0.9 | 0 | 107 | 12 | 116 | i | 1
Nc1ccc(C2(c3ccc(N)cc3)CCCCC2)cc1
 : · | 7 | 73 | 0 | 108 | i | 0.74
C[C@H]1CC[C@@H]2[C@@H](C)[C@H]3[C@H](C[C@H]4[C@@H]5CC=C6C[C@@H](O[C@@H]7O[C@H](CO)[C@H](O)[C@H](O[C@@H]8O[C@H](CO)[C@@H](O)[C@H](O)[C@H]8O)[C@H]7O[C@@H]7O[C@@H](C)[C@H](O)[C@@H](O)[C@H]7O)CC[C@]6(C)[C@H]5CC[C@]34C)N2C1
 : 2.8 | 9 | 145 | -2 | 84 | i | 0.65
CCn1c(NN=O)nc2ccccc21
 : · | 18 | 121 | 16 | 99 | i | 0.63
COc1ccc(Cn2c(O)c(C=NCCN3CCOCC3)c(=O)[nH]c2=O)cc1
 : -1.3 | · | · | -2 | 119 | i | 0.97
COc1ccc(-c2nn(CCC#N)cc2C(=O)Nc2ccccc2Br)cc1[N+](=O)[O-]
 : · | · | · | · | 95 | i | 0.82
CC1(C)C2CC=C(CN3CCC(O)CC3)C1C2 (stereo not drawn)
 : -1.4 | · | · | -4 | 100 | i | 1.1
Cc1nc2sccc2c(=O)n1-c1ccccc1Cl
 : -0.4 | · | · | 7 | 105 | i | 0.85
CN1C(=O)C(=Cc2ccccc2OCc2ccc(Cl)cc2)C(=O)N(C)C1=O
 : -0.1 | 28 | 148 | -4 | 96 | i | 0.73
Cc1cccc(-n2c(C)nc3cc(C(=O)N4CCC5(CC4)OCCO5)ccc32)c1
 : -1.0 | · | · | -3 | 105 | i | 0.65
COc1ccc(C=C2C(=O)N(C)C(=O)N(C)C2=O)cc1CSc1ccccn1
 : -0.5 | 11 | 87 | -2 | 102 | i | 1.1
Cc1ccccc1CN1CCN(Cc2ccccc2)CC1
 : · | -20 | 95 | -2 | 111 | i | 1.1
COc1cccc(C(=O)C2CCCN(C3CCOCC3)C2)c1 (stereo not drawn)
 : · | 45 | 137 | 13 | 104 | i | 0.84
CC1=CC(C)C(COC(N)=O)(COC(N)=O)C(C)C1 (stereo not drawn)
 : 0.3 | · | · | -1 | 117 | i | 0.96
c1ccc2c3c(ccc2c1)OCC1CONC31 (stereo not drawn)
 : · | -29 | 57 | 1 | 99 | i | 0.93
Cc1nn(-c2ccccc2)c2c1CC1(C(=O)N(C)C(=O)N(C)C1=O)C1CCCCN21 (stereo not drawn)
 : 1.4 | 38 | 68 | 0 | 103 | i | 0.79

Part of the list above, with tabs.
canonical_smiles	GALR2 agonist	Insulin prom inh	Insulin prom inh cell count	PKD1 kinase inh	RGS16-Gao	HSV replic up	HSV replic up primary fold
COc1ccc(C=C2C(=O)N(C)C(=O)N(C)C2=O)cc1CSc1ccccn1	-0.5	11	87	-2	102	i	1.1
Cc1ccccc1CN1CCN(Cc2ccccc2)CC1	·	-20	95	-2	111	i	1.1
COc1cccc(C(=O)C2CCCN(C3CCOCC3)C2)c1 (stereo not drawn)	·	45	137	13	104	i	0.84
CC1=CC(C)C(COC(N)=O)(COC(N)=O)C(C)C1 (stereo not drawn)	0.3	·	·	-1	117	i	0.96
c1ccc2c3c(ccc2c1)OCC1CONC31 (stereo not drawn)	·	-29	57	1	99	i	0.93

Following part:
Screens in order – GALR2 agonist | Insulin prom inh | Insulin prom inh cell count | PKD1 kinase inh | RGS16-Gao | HSV replic up | HSV replic up primary fold
COc1cc2c3c(c1OC)-c1cc(O)ccc1CC3NCC2 (stereo not drawn)
 : -1.8 | 12 | 85 | -4 | 94 | i | 0.93
CCCC12CN3CC(CCC)(CN(C1)C3c1ccccn1)C2=O (stereo not drawn)
 : -0.2 | -64 | 106 | 1 | 104 | i | 0.75
CN(C)CCc1nc2ccccc2c(=O)n1-c1ccccc1
 : 32* | -48 | 181 | -3 | 98 | i | 0.85
CCOC(=O)c1c(C)n(Cc2ccco2)c2ccc(OC)cc12
 : -1.9 | 0 | 64 | -2 | 113 | i | 0.94
COc1ccc(C(C)=O)cc1CC(C(=O)c1ccccc1)N(C)C (stereo not drawn)
 : -0.2 | 6 | 119 | -11 | 102 | i | 0.79
COP(=O)(OC)C1(Nc2ccc(C)cc2)CCCCC1
 : -1.8 | -29 | 63 | -3 | 95 | i | 1
CN1CCN(c2nc3ccccc3c(=O)n2-c2ccccc2)CC1
 : 0.1 | 60 | 52 | 3 | 91 | i | 0.92
CN1C(=O)NC(=O)/C(=C\C=C\c2ccccc2[N+](=O)[O-])C1=O
 : · | · | · | 1 | 85 | i | 1
O=C(/C=C/C=C/c1ccccc1)CC1(O)C(=O)Nc2ccccc21 (stereo not drawn)
 : · | 2 | 47 | -6 | 97 | i | 0.97
Nc1ccccc1C(=O)OCC(=O)N1CCc2ccccc21
 : -1.1 | -46 | 46 | 2 | 103 | · | ·
COc1ccc(C(O)c2cc(OC)ccc2OP(=O)(N(C)C)N(C)C)cc1 (stereo not drawn)
 : 0.1 | 8 | 92 | 6 | 106 | i | 0.98
Cc1ccccc1OCCN=Cc1c(O)n(C)c(=O)n(C)c1=O
 : -1.9 | 10 | 80 | 3 | 101 | i | 0.81
OC1(c2ccc(F)cc2)CC2CCC(C1)N2Cc1nnnn1C1CCCC1 (stereo not drawn)
 : -0.9 | 11 | 116 | 10 | 101 | i | 0.82
CCCC(C)C1(CC)C(=O)NC(=Nc2ccccc2)NC1=O (stereo not drawn)
 : -1.3 | -19 | 150 | 2 | 110 | i | 1.1
O=C1CCCC2=C1C(c1cccnc1)Nc1ccccc1N2 (stereo not drawn)
 : -0.3 | 18 | 114 | 7 | 105 | i | 0.94
N[C@@H](Cc1c[nH]c2ccccc12)c1nnc(SCc2ccccc2)o1
 : -1.4 | 9 | 94 | 2 | 95 | i | 0.85
O=C(N[C@H]1CP(=O)(Oc2ccccc2)O[C@H](COCc2ccccc2)[C@H]1O)C(Cl)(Cl)Cl (stereo partly drawn)
 : · | · | · | · | 99 | i | 0.86
CC(C)CC12CN3CCN(CC(C3)C1O)C2 (stereo not drawn)
 : -0.7 | 11 | 120 | -1 | 105 | i | 0.67
O=P(Oc1ccccc1)(Oc1ccccc1)C(Nc1ccccc1)c1ccccc1 (stereo not drawn)
 : -1.7 | · | · | -7 | 12 | i | 1.1
CCCCn1c(=O)c(C(=O)Nc2cnccn2)c(O)c2ccccc21
 : -0.7 | -27 | 63 | 7 | 105 | i | 0.95

Another view of part of the listing above.
| Compound | GALR2 agonist | Insulin prom inh | Insulin prom inh cell count | PKD1 kinase inh | RGS16-Gao | HSV replic up | HSV replic up primary fold |
| --- | --- | --- | --- | --- | --- | --- | --- |
| O=C(/C=C/C=C/c1ccccc1)CC1(O)C(=O)Nc2ccccc21 (stereo not drawn) | · | 2 | 47 | -6 | 97 | i | 0.97 |
| CCCC12CN3CC(CCC)(CN(C1)C3c1ccccn1)C2=O (stereo not drawn) | -0.2 | -64 | 106 | 1 | 104 | i | 0.75 |

Additional results
Screens in order – GALR2 agonist | Insulin prom inh | Insulin prom inh cell count | PKD1 kinase inh | RGS16-Gao | HSV replic up | HSV replic up primary fold
COCCCn1c(N)c(C(=O)OC(C)COC)c2nc3ccccc3nc21 (stereo not drawn)
 : 1.2 | · | · | -8 | 105 | i | 0.95
CN(C)Cc1ccccc1OC(=O)N(C)C
 : -1.5 | 73 | 115 | -10 | 99 | i | 0.94
O=C(CNC(=O)c1ccc(Br)cc1)Nc1ccc(Br)cc1C(=O)c1ccccc1
 : -0.9 | 29 | 136 | -6 | 98 | i | 0.98
Cc1ccc(S(=O)(=O)N(C)CCCC(=O)N2CCN(c3ccccn3)CC2)cc1
 : -1.5 | -48 | 40 | -4 | 110 | i | 0.87
CC(O)(CS(=O)(=O)c1ccc(F)cc1)C(=O)Nc1ccc(C#N)c(C(F)(F)F)c1 (stereo not drawn)
 : · | · | · | · | 100 | i | 0.84
Cc1ccn2nc(S(=O)(=O)Nc3c(F)cccc3F)nc2n1
 : -0.2 | -23 | 73 | 0 | 108 | i | 0.99
c1ccc2c(c1)CC1CNCc3cccc(c31)S2 (stereo not drawn)
 : -0.5 | -55 | 103 | 16 | 55 | i | 0.57

Source: PubChem BioAssay
